ALR inh – inhibitors of human ALR sulfhydryl oxidase, primary screen, biochemical, H2O2 detection, HRP-luminol luminescence, single point | actives 3.8% (n = 290,000) | purified ALR, DTT oxidation | AID 485317, 2010 | FAD-linked sulfhydryl oxidase ALR (Homo sapiens), P55789 | inhibition, % (no concentration beside the values);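 active = mean and each replicate at 75% or more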;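 also: stock transfer was 7.5 nL into about 7.5 µL; 0% = neutral wells and 100% = wells with inactivated enzyme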
Target sequence (P55789 whole entry, looked up): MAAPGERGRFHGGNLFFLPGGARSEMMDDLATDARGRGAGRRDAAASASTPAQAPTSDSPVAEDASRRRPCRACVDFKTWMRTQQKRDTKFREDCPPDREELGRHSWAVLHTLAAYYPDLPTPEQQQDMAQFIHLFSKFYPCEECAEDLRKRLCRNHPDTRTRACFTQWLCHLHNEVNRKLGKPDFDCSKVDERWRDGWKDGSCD
Vif TR-FRET – inhibitors of Vif binding to APOBEC3G peptide, primary screen, biochemical, TR-FRET, GST-Vif 1-94, biotin-A3G peptide, dose response retest (AID 1117319); actives 0.57% (n = 260,000); Virion infectivity factor (Human immunodeficiency virus type 1 group M subtype B (isolate …; TR-FRET GST-Vif / biotin-A3G peptide binding; higher % means a stronger effect; test concentration not given here; strong numbers were not always called active; inhibition, %, or IC50 in µM where a hit was titrated;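 active = above the screen mean plus three standard deviations and confirmed in dose response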;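 also: Vif residues 1-94 fused to GST binding biotinylated APOBEC3G peptide 110-148; 0% = full assay without inhibitor and 100% = GST in place of GST-Vif; retest series ran down from 100 µM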
AF4-AF9 inh – inhibitors of AF4 peptide binding to AF9, primary screen, biochemical, AlphaScreen, biotin-AF4 peptide, FLAG-AF9, single point; Protein AF-9 (Homo sapiens), P42568; actives 0.47% (n = 350,000); inhibition, % at 10 µM;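 active = every replicate reaching a set inhibition limit, whatever the replicate mean, cut at about 25% in these data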;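 also: 0% = plate neutral control median and 100% = total signal loss; the record names both 10 and 1 µM as test concentration; the first replicate is given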
Ecoli growth – E. coli growth inhibition, primary screen, OD600. Escherichia coli growth, 23 h; hits give low values. actives 0.21% (n = 330,000). OD600 absorbance (concentration not given with the values);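 active = OD600 absorbance below the run mean of sample wells minus 3.6 SD, in any replicate, cut at about 0.56 in these data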;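 also: stock transfer was 300 nL into about 60 µL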
HNF4A DNA FP – change in binding of human HNF4A to DNA, primary screen, biochemical, fluorescence polarization, FITC-DNA; actives 0.3% (n = 360,000); Hepatocyte nuclear factor 4-alpha (Homo sapiens), P41235; 1 h; activity change, % at 10 µM; in the data active = activity change above about 30%, passing the limit was not always enough;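 also: controls were the assay level and a saturating level of protein; the project sought stronger binding though the title names inhibitors; some compounds called inactive have numbers as strong as hits; positive values seem to mean higher polarization but the record does not say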
Target sequence (P41235 whole entry, looked up): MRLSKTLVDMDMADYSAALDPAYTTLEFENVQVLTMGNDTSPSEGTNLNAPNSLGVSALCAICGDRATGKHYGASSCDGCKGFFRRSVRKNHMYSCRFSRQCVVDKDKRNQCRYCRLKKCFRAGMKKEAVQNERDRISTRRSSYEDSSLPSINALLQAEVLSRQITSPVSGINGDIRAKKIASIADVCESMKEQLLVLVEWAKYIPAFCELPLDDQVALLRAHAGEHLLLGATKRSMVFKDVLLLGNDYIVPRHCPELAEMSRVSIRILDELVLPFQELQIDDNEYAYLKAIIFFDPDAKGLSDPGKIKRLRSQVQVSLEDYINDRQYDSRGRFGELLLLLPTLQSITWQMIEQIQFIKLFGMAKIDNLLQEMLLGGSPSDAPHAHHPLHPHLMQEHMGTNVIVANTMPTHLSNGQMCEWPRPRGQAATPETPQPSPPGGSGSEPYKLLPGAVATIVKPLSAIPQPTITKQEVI
Ecoli rRNA inh – reduced GFP signal of wild-type E. coli, primary screen, bacterial rRNA inhibitor project, GFP/RFP fluorescence, OD600, single point; AID 720706, 2013; GFP signal change (wild-type ribosome), % (concentration not given with the values); actives 1.6% (n = 350,000); E. coli WT GFP vs humanized-ribosome RFP mutants, 24 h; hits give low values; DMSO median 0, no signal -100;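 active = significant combined selectivity score with lowered wild-type GFP, culture density cut under 30%, mutant RFP and density less affected; inactive = any of these conditions unmet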; also: one replicate is shown; some compounds called inactive have numbers as strong as hits
FGF22 binding – binders of human FGF22 protein, primary screen, FGF22 synaptogenesis inhibitor project, biophysical, thermal shift, single point; Fibroblast growth factor 22 (Homo sapiens), Q9HCT0; recombinant FGF22 thermal shift, SYPRO orange fluorescence; percent of sucrose octasulfate shift, DMSO zero; calls only at 9.99 µM; actives 1.5% (n = 340,000); AID 651658, 2012;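 active = melting point raised past a set limit in the mean and every replicate; three in four hits are not shown here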
Target sequence (Q9HCT0 whole entry, looked up): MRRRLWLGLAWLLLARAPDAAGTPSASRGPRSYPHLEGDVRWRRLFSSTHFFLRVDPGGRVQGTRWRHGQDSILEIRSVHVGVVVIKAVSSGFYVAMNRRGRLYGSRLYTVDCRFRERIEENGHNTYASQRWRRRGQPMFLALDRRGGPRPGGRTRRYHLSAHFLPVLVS
Ecoli rRNA inh OD600 – further read-out of Ecoli rRNA inh, marked with its call; OD600 change, %; measured here: OD600 growth;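 optical density of the mix in the first replicate; 0 = DMSO median and -100 = no signal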
Ecoli rRNA inh RFP – second read-out of Ecoli rRNA inh, no call of its own (marks repeat the call); RFP signal change, %; measured here: RFP humanized mutant strains;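 first replicate; 0 = DMSO median and -100 = no signal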
* marks the source's active call; other numbers are inactive results; i = inactive; · = not tested or not shown. These rows are one share of the data; rates above refer to the full screens.

No.	Structure	ALR inh	Vif TR-FRET	AF4-AF9 inh	Ecoli growth	HNF4A DNA FP
1	C[C@@H]1CN([C@H](C)CO)C(=O)c2cc(-c3ccccc3F)cnc2O[C@H]1CN(C)C(=O)c1ccccn1	·	·	-1.3	·	·
2	O=C(N1CCOCC1)C(F)(F)C(=O)N1CCOCC1	-3	-2%	·	0.69	-0.5
3	O=C(COc1ccc(Cl)cc1)NCc1ccccc1	6	·	-3.1	0.66	0.3
4	CC(C)c1cccc(C(C)C)c1NC(=O)CN1C(=O)NC2(CCCCCCC2)C1=O	1	-9%	0.4	0.63	-2.4
5	COC(=O)c1ccc(CNC(=O)c2coc3ccccc3c2=O)cc1	·	-4%	-2.4	0.71	0.2
6	C/C(=N\NC(=O)c1csc(C)c1C)c1ccco1	21	5%	·	·	-2.0
7	CCOC(=O)C1CCN(C(=O)CN(C)S(=O)(=O)c2cc(C)ccc2OC)CC1	·	-2%	·	0.7	-4.1
8	CCCCN(C1CCS(=O)(=O)C1)S(=O)(=O)c1cc(C)ccc1C (centres undefined)	-3	10%	-16	0.64	0.3
9	COC(=O)C1=C(N)OC2=C(C(=O)CC(C)(C)C2)C1c1ccccc1OCC#N (centres undefined)	0	2%	-1.8	0.73	3.4
10	COc1cc(CCC(=O)OCC(=O)Nc2c(F)cccc2F)cc(OC)c1OC	-3	·	0.6	0.69	3.5
11	COc1ccc(CNC(=O)C2CC(=O)N(C3CCCCC3)C2)cc1 (centres undefined)	-7	·	-0.6	0.7	4.5
12	COc1cc(CN2CCCC(N3CCN(c4ccccc4C)CC3)C2)ccc1O (centres undefined)	42	·	4.0	0.66	0.0
13	CC(=O)Nc1ccc(-c2nnn(CC(=O)c3ccccc3)n2)cc1Cl	-7	-3%	·	0.71	-0.9
14	COc1ccc2c3c([nH]c2c1)[C@@H](CO)N(C(=O)c1ccccc1)CC31CCN(S(=O)(=O)c2cccs2)CC1	·	·	-1.8	·	·
15	CC(=O)c1ccc(-c2c(CCO)sc3ccccc23)cc1	·	·	-7.0	·	3.4

No.	Ecoli rRNA inh	Ecoli rRNA inh OD600	Ecoli rRNA inh RFP	FGF22 binding
1	0	-2	-0.1	i
2	·	·	·	·
3	-7	-5	-0.8	i
4	2	7	-1.7	i
5	24	10	4.1	i
6	·	·	·	·
7	·	·	·	·
8	-26	-38	-10	i
9	11	10	-1.3	i
10	·	·	·	i
11	6	8	0.3	i
12	9	14	2.6	i
13	·	·	·	·
14	-3	-9	-1.6	i
15	-37	-46	-11	i

Sorted by the number under Ecoli rRNA inh OD600 (high to low): three of the compounds above
entry	Compound	ALR inh	Vif TR-FRET	AF4-AF9 inh	Ecoli rRNA inh	Ecoli rRNA inh OD600	Ecoli rRNA inh RFP
11	COc1ccc(CNC(=O)C2CC(=O)N(C3CCCCC3)C2)cc1 (centres undefined)	-7	·	-0.6	6	8	0.3
3	O=C(COc1ccc(Cl)cc1)NCc1ccccc1	6	·	-3.1	-7	-5	-0.8
15	CC(=O)c1ccc(-c2c(CCO)sc3ccccc23)cc1	·	·	-7.0	-37	-46	-11

Other compounds follow.
No.	Structure	ALR inh	Vif TR-FRET	AF4-AF9 inh	Ecoli growth	HNF4A DNA FP
16	CCOc1ccccc1NC(=O)N1C2CCCC1CC(NC(=O)C1CC1)C2 (centres undefined)	-1	-8%	·	0.7	-2.7
17	O=CN(CCN(C=O)CN1CCCCC1)CN1CCCCC1	-1	5%	·	0.65	0.8
18	COc1ccc(CCN(C)C(=O)COC(=O)/C=C/c2ccc(C)o2)cc1OC	·	37%	-20	0.67	-0.6
19	CCc1ccc(Nc2n[n+](-c3ccccc3)c(-c3ccc(OCc4ccccc4)cc3)s2)cc1	1	·	5.2	·	-4.8
20	O=C(O)C[C@@H]1C=C[C@@H](NC(=O)c2ccncc2)[C@H](CO)O1	·	·	-3.0	·	·
21	Cc1ccc(-n2ncc3c(=O)[nH]c(SCC(=O)N4CCOCC4)nc32)cc1	0	5%	·	0.74	3.0
22	Cc1oc(-c2ccccc2)nc1C(=O)OCC(=O)NC(C)c1ccccc1 (centres undefined)	-1	-3%	-6.0	0.68	4.8
23	c1ccc(COc2ccc(CN3CCN(c4ccccn4)CC3)cc2)cc1	-28	2%	·	0.64	-1.3
24	CC(C)(C)OC(=O)NCCCC[C@H](NC(=O)c1[nH]cnc1C(=O)Nc1ccc(Cl)cc1)C(=O)OC(C)(C)C	21	-1%	·	·	-6.4
25	CCNC(=O)[C@@H]1[C@@H](CO)[C@@H]2Cn3c(ccc(-c4ccccc4F)c3=O)[C@H]1N2CC	·	·	-1.4	·	·
26	COc1cccc(-c2ccc3c(c2)[C@H]2[C@H](CCN2C(=O)c2cnccn2)[C@H](CO)N3)c1	·	·	2.6	·	·
27	COC(CNC(=O)c1cn(C)c2ccc(S(=O)(=O)N(C)C3CCCCC3)cc2c1=O)OC	2	·	-1.3	0.62	1.4
28	C[C@H]1CN([C@@H](C)CO)C(=O)c2cccc(NC(=O)CCCCCC(=O)Nc3ccccc3N)c2O[C@@H]1CN(C)Cc1ccc(-c2ccccc2)cc1	·	·	-1.2	·	·
29	Cc1ccc(C(=O)NC(=S)Nc2cccnc2Cl)cc1	-7	·	-1.9	0.69	-1.3
30	Clc1cccc(Sc2ccc(-c3ccccn3)s2)c1	-13	-66%	-1.8	0.67	-38

No.	Ecoli rRNA inh	Ecoli rRNA inh OD600	Ecoli rRNA inh RFP	FGF22 binding
16	·	·	·	·
17	·	·	·	·
18	1	4	3.0	i
19	-5	-17	-7.0	i
20	-2	-5	-2.0	i
21	·	·	·	·
22	2	0	-0.5	i
23	·	·	·	·
24	·	·	·	·
25	3	9	-0.5	i
26	0	-1	0.0	i
27	-2	-1	-3.6	i
28	-3	0	2.9	i
29	-11	1	1.7	i
30	3	10	-0.8	·

(more compounds)
No.	Structure	ALR inh	Vif TR-FRET	AF4-AF9 inh	Ecoli growth	HNF4A DNA FP
31	CC(=O)Nc1ccc(NC(=O)c2ccc(S(=O)(=O)N(C)c3ccccc3)cc2)cc1	-2	·	-1.1	0.7	-0.1
32	COc1ccccc1-c1cc(C(=O)N2CCCCC2)no1	-3	-1%	-11	0.78	3.9
33	O=C(O)c1cccc(NS(=O)(=O)c2ccc3c(c2)C(=O)c2ccccc2C3=O)c1	-34	-3%	0.6	0.67	-2.5
34	Cc1nnsc1-c1nc2ccccc2[nH]1	-4	12%	·	0.69	6.5
35	CC(C)(C)NC(=O)C1CCN(S(=O)(=O)c2cccc(C(F)(F)F)c2)CC1	-1	·	-1.7	0.69	3.7
36	CCCN1[C@H](C(=O)NCC2CC2)[C@@H](CO)[C@@H]2Cn3c(ccc(-c4ccccc4)c3=O)[C@@H]21	·	·	-7.2	·	·
37	O=C(NNS(=O)(=O)c1ccccc1)Nc1ccc(F)cc1	-1	·	-1.9	0.72	1.9
38	O=C(C[n+]1cccc(O)c1)Nc1ccc(Br)cc1	-8	8%	-9.4	0.72	0.4
39	Cc1cc(NC(=O)CCCn2nc([N+](=O)[O-])cc2C)no1	3	5%	1.1	0.69	4.8
40	COc1ccc(NC(=O)c2cc(-c3ccccc3Cl)on2)cc1OC	-15	·	0.1	0.71	3.0
41	COC(=O)[C@@H](Cc1ccc(O)cc1)NC(=O)[C@H]1CCC(=O)N1C(=O)OCc1ccccc1	-2	·	-2.1	0.77	2.1
42	Cc1csc2c(=O)sc(NC(=O)c3ccc(F)cc3Cl)nc12	2	1%	0.1	0.7	5.5
43	Cc1cc(C)cc(N(CCC#N)C(=O)COC(=O)C2CCN(S(=O)(=O)c3ccc(C)c(C)c3)CC2)c1	-2	3%	1.0	0.7	-0.8
44	Cc1ccc(Cl)c(OCC(=O)Nc2cc(S(=O)(=O)N3CCOCC3)ccc2N2CCCC2)c1	5	·	1.7	0.69	-0.4
45	CC1CCCCC1NC(=O)c1cccc(NC2=NC3CS(=O)(=O)CC3S2)c1 (centres undefined)	-3	·	-1.8	0.8	-2.3

No.	Ecoli rRNA inh	Ecoli rRNA inh OD600	Ecoli rRNA inh RFP	FGF22 binding
31	7	5	-2.3	i
32	-6	-18	2.9	i
33	-34	-52	-14	i
34	·	·	·	·
35	-1	10	0.9	i
36	-3	-12	1.1	i
37	7	3	1.3	i
38	12	7	1.3	i
39	10	5	2.8	i
40	-1	-6	-1.2	i
41	6	7	1.6	i
42	3	10	0.7	i
43	2	-4	2.5	i
44	-18	-16	4.4	i
45	3	7	2.0	i

The listing continues:
No.	Structure	ALR inh	Vif TR-FRET	AF4-AF9 inh	Ecoli growth	HNF4A DNA FP
46	O=C(Nc1ccc2c(c1)OCO2)c1ccc2c(c1)S(=O)(=O)c1ccccc1C2=O	-8	·	-6.6	0.69	-3.8
47	CC1(c2nnc(-c3cccc(Cl)c3)o2)CC(c2cccc(Cl)c2)=NO1 (centres undefined)	12	·	·	0.69	-3.0
48	CCSc1nnc(CCNC(=O)OC(C)(C)C)o1	-3	-4%	·	0.69	2.7
49	C[C@@H]1CN([C@H](C)CO)C(=O)c2cc(NC(=O)Nc3ccc(F)cc3)ccc2O[C@H]1CN(C)C(=O)Nc1ccccc1	·	·	-5.0	·	·
50	COc1ccc(C(CCN(Cc2ccc(OC)c(OC)c2)C(C)=O)C(C)C)cc1 (centres undefined)	-2	0%	2.3	0.66	-1.5
51	Cc1ccc(-c2nn(C)c(=O)c3ccccc23)cc1CNS(C)(=O)=O	-11	-1%	·	0.71	5.8
52	O=C(Cc1n[nH]c(=O)c2ccccc12)OCC(=O)N(Cc1ccccc1)Cc1ccccc1	-13	6%	-39	0.68	5.0
53	COCC1CCN(C(=O)c2cc(COc3ccc(-n4cncn4)cc3)on2)C1 (centres undefined)	-2	·	4.8	0.65	-0.5
54	N#CCCCC1(CCCC#N)OCCO1	·	-8%	-0.9	·	-1.1
55	CCN(CC(=O)Nc1ccccc1C(F)(F)F)C(=O)CN1C(=O)NC(C)(c2ccc3ccccc3c2)C1=O (centres undefined)	·	·	3.0	0.69	-0.9
56	COc1cccc(S(=O)(=O)N2CCN(Cc3ccc4c(c3)OCO4)CC2)c1	2	·	2.3	0.71	-0.9
57	O=C(O)CSc1nnc(Cn2cnc3ccccc32)n1CCc1ccccc1	-10	25%	·	0.7	0.1
58	CN(CC(=O)Nc1ccc(F)c(F)c1F)C(=O)C1CSC2(C)CCC(=O)N12 (centres undefined)	-5	18%	0.9	0.68	-2.9

No.	Ecoli rRNA inh	Ecoli rRNA inh OD600	Ecoli rRNA inh RFP	FGF22 binding
46	8	14	5.6	i
47	-10	-10	1.1	i
48	·	·	·	·
49	3	2	-3.9	i
50	-21	-34	-6.8	i
51	·	·	·	·
52	-24*	-16*	-0.5*	i
53	-3	-1	10	i
54	12	21	-2.5	i
55	-10	-21	1.8	i
56	-12	-15	-0.5	i
57	·	·	·	·
58	-2	9	-0.2	i

Look-ups from the list:
Under Vif TR-FRET, no. 58 is entered as 18%
Under Ecoli rRNA inh, no. 53 is entered as -3
Under AF4-AF9 inh, no. 54 is entered as -0.9
